# MLL AF4-AF9 inh: inhibitors of human MLL-AF4/AF9 interaction; inhibition, % at 10 µM; AlphaScreen, biotin-AF4 peptide binding to FLAG-AF9; P42568; 0.47% of 350,000 active; AID 651704;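 active = every replicate reaching a set inhibition limit, whatever the replicate mean, cut at about 25% in these data; inconclusive = mean inhibition reaches that limit but some replicates miss it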;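 note: 0% = plate neutral control median and 100% = total signal loss; the record names both 10 and 1 µM as test concentration; the first replicate is given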
# FGF22 binding: binders of recombinant human FGF22 by thermal shift; Q9HCT0; SYPRO orange fluorescence; percent of sucrose octasulfate shift, DMSO zero; calls only at 9.99 µM; 1.5% of 340,000 active; AID 651658;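 active = melting point raised past a set limit in the mean and every replicate; inconclusive = no clear call; three in four hits are not shown here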
# Target sequence (Q9HCT0 whole entry, looked up): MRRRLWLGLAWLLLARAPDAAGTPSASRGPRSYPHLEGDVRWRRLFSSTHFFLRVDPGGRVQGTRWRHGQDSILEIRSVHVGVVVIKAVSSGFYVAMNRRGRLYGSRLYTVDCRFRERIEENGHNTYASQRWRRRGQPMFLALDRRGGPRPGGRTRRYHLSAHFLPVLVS
# E coli growth: inhibitors of Escherichia coli growth. OD600, 23 h; active compounds read low. OD600 absorbance (no concentration beside the values). 0.21% of 330,000 active. AID 1053175;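 active = OD600 absorbance below the run mean of sample wells minus 3.6 SD, in any replicate, cut at about 0.56 in these data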;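 note: stock transfer was 300 nL into about 60 µL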
# Ecoli rRNA inh: inhibitors of bacterial rRNA selective over humanized ribosomes | E. coli WT GFP vs humanized-ribosome RFP mutants, fluorescence, 24 h; active compounds read low; DMSO median 0, no signal -100 | GFP signal change (wild-type ribosome), % (test concentration not listed) | 1.6% of 350,000 active;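 active = significant combined selectivity score with lowered wild-type GFP, culture density cut under 30%, mutant RFP and density less affected; inactive = any of these conditions unmet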; note: one replicate is shown; some compounds called inactive have numbers as strong as hits
# HNF4A DNA FP: change in binding of human HNF4 alpha to DNA; 0.3% of 360,000 active; HNF4a-FITC DNA binding, fluorescence polarization, 1 h; activity change, % at 10 µM; AID 1224865; in the data active = activity change above about 30%, passing the limit was not always enough;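 note: controls were the assay level and a saturating level of protein; the project sought stronger binding though the title names inhibitors; some compounds called inactive have numbers as strong as hits; positive values seem to mean higher polarization but the record does not say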
# Target sequence (P41235 whole entry, looked up): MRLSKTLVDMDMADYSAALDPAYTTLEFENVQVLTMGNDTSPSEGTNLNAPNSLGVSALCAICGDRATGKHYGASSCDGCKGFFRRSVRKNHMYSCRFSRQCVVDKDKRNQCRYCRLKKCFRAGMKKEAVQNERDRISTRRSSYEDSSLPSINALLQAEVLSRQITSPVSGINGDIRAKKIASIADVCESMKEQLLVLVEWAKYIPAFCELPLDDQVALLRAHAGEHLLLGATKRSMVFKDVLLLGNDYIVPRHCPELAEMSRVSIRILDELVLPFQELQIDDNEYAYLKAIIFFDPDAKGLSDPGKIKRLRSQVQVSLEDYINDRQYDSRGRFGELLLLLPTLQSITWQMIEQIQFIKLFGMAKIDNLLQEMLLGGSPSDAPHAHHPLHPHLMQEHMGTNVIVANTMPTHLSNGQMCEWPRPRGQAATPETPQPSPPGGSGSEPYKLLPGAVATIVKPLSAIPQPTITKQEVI
# Vif A3G: inhibitors of Vif binding to APOBEC3G peptide, primary screen, biochemical, TR-FRET, GST-Vif 1-94, biotin-A3G peptide, dose response retest (AID 1117319) | TR-FRET GST-Vif / biotin-A3G peptide binding; higher % means a stronger effect; test concentration not given here; strong numbers were not always called active | one-dose inhibition, %; IC50 in µM for titrated hits | 0.57% of 260,000 active;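 active = above the screen mean plus three standard deviations and confirmed in dose response; inconclusive = results disagree or hit not tested in dose response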;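 note: Vif residues 1-94 fused to GST binding biotinylated APOBEC3G peptide 110-148; 0% = full assay without inhibitor and 100% = GST in place of GST-Vif; retest series ran down from 100 µM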
# ALR inh: inhibitors of human sulfhydryl oxidase ALR; P55789; purified ALR, DTT oxidation, H2O2 HRP-luminol luminescence; inhibition, % (no concentration beside the values); 3.8% of 290,000 active;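 active = mean and each replicate at 75% or more; inconclusive = only one of the two met; inactive = neither met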;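 note: stock transfer was 7.5 nL into about 7.5 µL; 0% = neutral wells and 100% = wells with inactivated enzyme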
# Target sequence (P55789 whole entry, looked up): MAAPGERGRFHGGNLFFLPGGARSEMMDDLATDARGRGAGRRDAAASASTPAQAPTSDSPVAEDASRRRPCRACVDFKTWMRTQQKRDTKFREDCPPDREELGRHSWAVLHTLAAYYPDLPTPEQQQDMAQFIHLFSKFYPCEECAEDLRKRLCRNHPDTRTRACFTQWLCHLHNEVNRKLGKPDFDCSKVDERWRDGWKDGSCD
# Ecoli rRNA inh OD600: also measured in Ecoli rRNA inh; calls as there; OD600 change, %; measured here: OD600 growth;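 optical density of the mix in the first replicate; 0 = DMSO median and -100 = no signal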
# Ecoli rRNA inh RFP: further read-out of Ecoli rRNA inh, marked with its call; RFP signal change, %; measured here: RFP humanized mutant strains;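 first replicate; 0 = DMSO median and -100 = no signal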
# * = called active by the depositor; i = inactive; ? = inconclusive; nt = no result given. A portion of the library; count on the stated rates, not on these rows.
Ecoli rRNA inh RFP	Ecoli rRNA inh OD600	FGF22 binding	E coli growth	Ecoli rRNA inh	HNF4A DNA FP	ALR inh	structure	MLL AF4-AF9 inh	Vif A3G
nt	nt	i	0.62	nt	-1.6	13	CCOC(=O)C(C)Sc1nc2c([nH]c3ccccc32)c(=O)n1C (centres undefined)	-1.0	0%
-2.9	-1	i	0.67	7	-1.2	-4	CC(=O)N1CC(C)Oc2ccc(S(=O)(=O)Nc3ccc(Cl)cn3)cc21 (centres undefined)	-2.1	nt
nt	nt	nt	0.61	nt	0.3	5	Cc1ccc(NC(C#N)c2ccccc2OCc2ccccc2)cc1 (centres undefined)	nt	-1%
2.0	2	i	nt	8	-0.5	nt	COc1cccc(CNc2nc3cc(-c4cccc(Cl)c4)sc3c(=O)n2C)c1OC	-0.4	nt
-1.1	3	i	0.66	5	-0.8	-6	CCc1ccc(NC(=O)CSc2ccc(-c3cccnc3)nn2)cc1	-0.2	0%
-2.8	3	i	nt	2	-3.1	22	O=C(O)/C=C/C(=O)Nc1ccc(OC(F)(F)Cl)cc1	-2.1	2%
-1.3	9	i	nt	5	nt	nt	CNC[C@H]1Oc2ccc(NC(=O)c3ccncc3)cc2C(=O)N([C@@H](C)CO)C[C@H]1C	-17	nt
nt	nt	nt	0.68	nt	-0.6	-9	O=C(CSc1nnnn1-c1ccccc1)N1CCN(C(=O)c2ccco2)CC1	nt	-2%
3.3	13	i	nt	5	0.2	5	COc1nc(N/N=C/c2ccc(C)cc2)nc(N2CCCCC2)n1	-9.5	4%
1.1	6	i	nt	-1	-1.9	0	C[C@H]1CN([C@@H](C)CO)C(=O)c2cccc(NC(=O)C3CC3)c2O[C@H]1CN(C)Cc1ccc(C(F)(F)F)cc1	-2.2	nt
1.4	15	i	0.68	-2	1.0	-17	O=C(/C=C\c1ccco1)Nc1nc(-c2ccc3ccccc3c2)cs1	-0.5	nt
-1.4	12	i	0.69	5	-2.4	nt	Cn1c(N)c(C(=O)COC(=O)c2ccc(OC(F)F)cc2)c(=O)n(C)c1=O	2.2	-2%
-3.6	-23	nt	0.7	-13	2.2	59	COc1ccc(N2CCN(C(=O)CCc3c[nH]c4ccccc34)CC2)cc1	-3.9	3%
-4.4	-26	i	0.62	-6	-2.6	nt	c1ccc2cc(CNCc3cccc4ccccc34)ccc2c1	-0.8	5%
3.9	-19	i	nt	-5	nt	nt	CCC(=O)N(C)C[C@H]1Oc2cc(-c3ccc(C)cc3)ccc2S(=O)(=O)N([C@@H](C)CO)C[C@@H]1C	1.9	nt
-5.3	-15	i	nt	-5	-3.6	nt	C[C@H]1Cn2cnc(C(=O)N[C@@H](Cc3c[nH]c4ccccc34)C(=O)OC(C)(C)C)c2C(=O)N1	-1.3	nt
nt	nt	nt	nt	nt	-2.6	94*	COc1cccc(/C=N/NC(=O)CNC(=O)c2ccc3c(c2)OCCO3)c1O	nt	12%
-1.5	17	i	nt	5	1.8	-11	C(=N\N1CCOCC1)/c1ccsc1	-4.5	11%
-2.2	2	i	nt	-1	nt	nt	CCC(=O)Nc1ccc2c(c1)OC[C@H](C)N(CCC(F)(F)F)C[C@H](C)[C@H](OC)CN(C)C2=O	-3.0	nt
-1.5	6	i	nt	4	nt	nt	C[C@@H]1CN([C@@H](C)CO)C(=O)c2cc(NC(=O)CCC(F)(F)F)ccc2O[C@@H]1CN(C)S(C)(=O)=O	-1.1	nt
4.6	25	i	nt	0	nt	nt	CCCC#Cc1ccc([C@H]2[C@@H](CO)N3CCCCN(CC4CCOCC4)C[C@@H]23)cc1	6.3	nt
5.8*	-2.6*	i	0.67	-19*	-0.7	0	CCN(CC)CCNC(=O)c1cc2cc3ccc(OC)cc3nc2o1	2.4	-5%
nt	nt	nt	0.7	nt	0.6	-3	CCOC(=O)C1=C(c2ccccc2)OC(N)=C(C#N)C1c1ccco1 (centres undefined)	nt	1%
nt	nt	nt	0.67	nt	0.0	-14	CCOc1ccc2c(c1)c1nnc(SCC(=O)N3CCCCC3C)nc1n2C (centres undefined)	nt	7%
0.1	4	i	nt	-5	3.3	nt	Cc1cccc(C)c1NC(=O)CN(C)CCc1ccccc1	-0.9	nt
-1.2	3	i	0.67	7	-3.1	4	O=C(O)c1ccc(S(=O)(=O)N2CCSCC2)cc1	-14	nt
-1.3	-1	i	0.73	-2	-3.1	3	O=C(COC(=O)c1cccc(Cl)c1)Nc1cccc(S(=O)(=O)NC2=NCCC2)c1	8.9	nt
-1.1	-9	nt	0.7	-7	2.6	-8	CC1CC(C)(C)NC(=S)N1CCCC(=O)Nc1ccc2c(c1)OCCO2 (centres undefined)	1.2	nt
nt	nt	nt	0.7	nt	14	nt	CCn1c(=O)c2c(nc3n2CC(C)CN3CCc2ccccc2)n(C)c1=O (centres undefined)	nt	2%
1.9	-29	i	0.67	-27	-0.1	-11	O=C1N=C(N2CCN(Cc3ccccc3)CC2)S/C1=C/c1cccs1	nt	-5%
nt	nt	nt	nt	nt	0.2	-3	C/C(=N/OCC(=O)Nc1ccccc1)c1cccs1	nt	0%
-1.2	4	i	nt	7	nt	nt	C[C@H](O)C#Cc1cnc2c(c1)C(=O)N([C@@H](C)CO)C[C@@H](C)[C@H](CN(C)C(=O)c1ccncc1)O2	-3.6	nt
1.1	0	i	0.66	-3	-2.4	2	C[C@@H]1CN(C2CCN(Cc3nc(C(c4ccccc4)c4ccccc4)no3)CC2)C[C@H](C)O1	2.3	2%
-1.8	2	i	nt	3	nt	nt	Cc1ccc(S(=O)(=O)N(C)C[C@H]2Oc3ccc(NC(=O)Cc4cn(C)c5ccccc45)cc3CC(=O)N([C@@H](C)CO)C[C@H]2C)cc1	-2.0	nt
13	-13	i	0.65	4	-1.4	-9	CCCCOc1c(Br)cc(CNCCCN2CCOCC2)cc1OC	0.0	nt
4.6	-4	i	nt	-3	nt	nt	CO[C@H]1CN(C)C(=O)c2ccc(NC(C)=O)cc2OC[C@@H](C)N(Cc2cc(F)ccc2F)C[C@@H]1C	4.0	nt
2.8	8	i	nt	12	-2.2	-5	O=C(O)COc1ccc(-c2nccc(-c3ccccn3)n2)cc1	0.6	-8%
-0.5	2	i	0.68	-2	0.7	-2	C=CCOC(=O)Cn1cnc2c(sc3nc(C)cc(C)c32)c1=O	-7.2	nt
-1.2	-2	i	0.69	10	-3.4	-5	O=C(CSc1nc2ccc(Cl)cc2[nH]1)NC1CCCc2ccccc21 (centres undefined)	-0.4	nt
2.9	-12	i	0.71	-11	3.1	-11	Cn1cc(S(=O)(=O)N2CCOCC2)cc1C(=O)Nc1cccc(Cl)c1	-3.7	nt
1.2	-20	i	nt	-20	-2.8	-1	Cn1cc(/C=N/NC(=O)c2ccc(C#N)cc2F)c2ccccc21	-5.8	-1%
nt	nt	nt	0.63	nt	3.5	-4	COc1ccc(OC)c(NC(=O)Cn2cc(C#N)c3ccccc32)c1	nt	16%
1.9	9	nt	0.62	-1	-0.3	nt	O=C(Nc1cccc2ncccc12)c1ccc([N+](=O)[O-])o1	0.8	nt
1.2	-3	i	0.63	7	0.0	14	Cc1ccc(O)c(C(CC(=O)NC(C)C)c2ccccc2)c1 (centres undefined)	1.6	8%
-1.0	-3	i	nt	-1	nt	nt	COCC#Cc1ccc2c(c1)O[C@H](CN(C)C(=O)c1ccccc1F)[C@@H](C)CN([C@@H](C)CO)S2(=O)=O	0.0	nt
19	-18	i	nt	2	nt	nt	C[C@@H]1CCCCO[C@@H](CN(C)Cc2ccccc2)[C@H](C)CN([C@H](C)CO)C(=O)c2cc(NC(=O)Nc3ccccc3)ccc2O1	4.1	nt
1.9	5	i	nt	4	nt	nt	C[C@@H]1CCCCO[C@H](CN(C)C(=O)Nc2ccc(C(F)(F)F)cc2)[C@H](C)CN([C@H](C)CO)C(=O)c2cc(NC(=O)C3CCCCC3)ccc2O1	-0.5	nt
nt	nt	nt	0.68	nt	2.0	36	COc1ccc(S(=O)(=O)NNC(=O)c2cc3cc4ccccc4nc3s2)cc1	nt	20%
2.6	13	i	0.68	17	-4.8	-1	Cc1ccc(S(=O)(=O)NCC(=O)OCC(=O)N2CC(C)OC(C)C2)cc1 (centres undefined)	-2.5	nt
-0.7	4	i	0.71	3	-4.2	-18	CSc1ccccc1OCc1cc(C(=O)NC(C)Cn2cncn2)no1 (centres undefined)	-0.3	nt
-2.4	4	i	0.65	-1	-1.5	-10	COc1cc2cc(CCOC(=O)c3ccc(C#N)cc3)oc(=O)c2cc1OC	nt	nt
nt	nt	nt	0.71	nt	0.0	1	CCCCC(=O)NCCc1ccc(OC)cc1	nt	-4%
nt	nt	nt	0.73	nt	1.2	-3	CC(C)(C)NS(=O)(=O)c1ccc(CCC(=O)NCc2ccco2)cc1	nt	12%
-3.1	9	i	0.59	11	-2.9	11	O=[N+]([O-])c1ccc(-c2cn3c(n2)CCC3)cc1	4.9	4%
-2.5	0	i	0.66	-9	-1.4	31	O=C(O)c1ccc(Nc2nc(-c3cccnc3)cs2)cc1O	2.6	nt
2.8	8	i	nt	10	2.5	nt	O=C(CSc1nc2cccc(F)c2c(=O)n1-c1ccccc1)Nc1ccc2c(c1)CCC2	-0.5	nt
1.1	10	i	0.69	14	2.7	-2	CCS(=O)(=O)N1CCN(c2ccc(S(=O)(=O)N3CCOCC3)cc2)CC1	0.3	-3%
nt	nt	nt	0.77	nt	1.6	-2	O=C(Oc1cccc(Nc2ncnc3ccccc23)c1)c1ccccc1Cl	nt	1%
nt	nt	nt	0.7	nt	-1.1	99*	Cn1ccnc1SCC(=O)Nc1ccc2c(c1)COC2=O	nt	?
0.2	2	i	0.6	2	0.5	nt	O=C(CN1CCN(Cc2ccccc2)CC1)Nc1ccc(Cl)cc1	-0.9	1%

# The final 2 entries of the section before open the next one:
Ecoli rRNA inh RFP	Ecoli rRNA inh OD600	FGF22 binding	E coli growth	Ecoli rRNA inh	HNF4A DNA FP	ALR inh	structure	MLL AF4-AF9 inh	Vif A3G
nt	nt	nt	0.7	nt	-1.1	99*	Cn1ccnc1SCC(=O)Nc1ccc2c(c1)COC2=O	nt	?
0.2	2	i	0.6	2	0.5	nt	O=C(CN1CCN(Cc2ccccc2)CC1)Nc1ccc(Cl)cc1	-0.9	1%
1.5	-12	i	nt	-9	nt	nt	C[C@H]1CN([C@@H](C)CO)S(=O)(=O)c2ccc(-c3ccncc3)cc2O[C@H]1CN(C)S(=O)(=O)c1ccccc1F	3.8	nt
-0.9	-1	i	0.7	-4	11	3	COc1ccc(OC)c(NC(=O)C(=O)NNC(=O)c2cccs2)c1	-1.0	nt
nt	nt	nt	0.69	nt	1.1	1	CC(C)C[C@H](NC(=O)Nc1cccc(C(F)(F)F)c1)C(=O)O	nt	14%
0.7	-2	i	nt	3	1.0	nt	Cc1cc(O)ccc1-c1cc(C(=O)NCc2ccc(F)cc2)[nH]n1	1.0	nt
nt	nt	nt	0.75	nt	0.2	69	NC(=O)COC(=O)CCCc1c[nH]c2ccccc12	nt	-4%
0.2	5	i	nt	-3	nt	nt	Cc1noc(C)c1NC(=O)Nc1ccc2c(c1)C(=O)N([C@H](C)CO)C[C@H](C)[C@@H](CN(C)C(=O)Nc1ccc3c(c1)OCO3)OCCCC[C@H](C)O2	3.0	nt
12	-5	i	0.66	-10	2.4	13	COC(=O)c1ccccc1NC(=S)NC(NC(=O)c1ccco1)C(Cl)(Cl)Cl (centres undefined)	5.5	27%
-0.8	1	i	0.66	9	-4.1	-5	O=C(Nc1nccs1)c1ccc(Br)cc1	1.8	nt
-5.9	-8	i	0.76	-10	3.7	nt	Cc1onc(-c2ccccc2)c1C(=O)Nc1ccc(S(=O)(=O)N2CCCCC2)cc1	-2.9	-2%

# Screens from PubChem.
